miR-21 FLuc = qHTS Assay for Modulators of miRNAs and/orActivators of miR-21; 340,000 tested, under 10 active; HeLa miR-21 FLuc reporter, luciferase, 48 h; Potency, µM (series often up to 38.3 µM), inactives show at the top dose reporter change, positive = more light; active = well fitted rising curve with a large enough effect; inconclusive = small, poorly fitted or top-dose-only effect; inactive = no such curve, though single readings can be large or run the other way;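 also: % of control where 0% means no effect; miR-21 action dims this reporter so a rising signal means less miR-21 action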
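Using DMEM plus 10% FBS, HeLa miR-21-FLuc cells are incubated with test compounds (final up to about 40uM) for 48 hours; firefly luciferase signal is then imaged following reagent-mediated lysis.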
The depositor's hits bear a star; ? = inconclusive. Some of the compounds tested, so the mix of outcomes need not match the whole.

SMILES | miR-21 FLuc
O=C(CSCc1ccccc1Cl)NCc1ccc(Cl)c(Cl)c1 | 28.9%
Cc1ccc(OCC(=O)Nc2ccc3nn(-c4ccc(Cl)cc4)nc3c2)cc1 | -14.8%
CCSC1=NC2(CCN(C(=O)NC3CCCCC3)CC2)N=C1c1ccc(C)cc1 | 2.9%
COc1cccc2cc(C(=O)NCCc3c(C)[nH]c4ccc(Br)cc34)c(=O)oc12 | -1.1%
O=C(Nc1ccccc1F)c1nc(SCc2ccccc2F)ncc1Cl | -0.3%
CCOc1ccc(CNC(=O)CCC(=O)N2CC(C)Sc3ccccc32)cc1 (stereo unspecified) | -2.2%
COCc1cc(C)nc2c1C(=O)NC(c1ccc(F)cc1)N2Cc1ccccc1 (stereo unspecified) | -4.9%
O=S(=O)(c1ccccc1)c1nc(-c2cccs2)oc1SCc1ccccc1Cl | -8.3%
CCc1ccccc1N(C)C(=O)c1sc2nc3n(c(=O)c2c1C)CCCCC3 | 0.9%
Cc1ccc(-c2nnc(SCc3ccccc3)o2)cc1 | -63.7%
O=C(CCS(=O)(=O)c1ccccc1)N(Cc1cccnc1)c1nc2c(Cl)cccc2s1 | 2.1%
CCc1noc(-c2ccc(N(C)Cc3ccc(OC)cc3)c([N+](=O)[O-])c2)n1 | -5.1%
COc1cccc2c1cc1c(=O)n(CC(=O)N3CCN(c4cccc(C)c4)C(C)C3)nc(C)n12 (stereo unspecified) | -6.9%
CC(C)c1noc(-c2ccccc2OCC(=O)Nc2ccccc2[N+](=O)[O-])n1 | 28.2%
COc1cccc(NC(=O)Nc2ccc3c(c2)N(C)C(=O)c2ccccc2S3)c1 | -6.2%
CCCN1C(=O)C(Cc2nc3ccccc3c(=O)n2-c2ccc(OC)cc2)c2cc(C)ccc21 (stereo unspecified) | 5.1%
CCOC(=O)c1sc(NC(=O)c2nc3ncccn3n2)c(C(=O)OC)c1C | -0.3%
Cc1ccc(CNC(=O)CCCc2nnc3n(C)c(=O)c4sccc4n23)cc1 | -5.9%
CCOC(=O)c1ccc(NC(=O)c2c(NCc3sccc3C)sc3c2CCC(C)C3)cc1 (stereo unspecified) | -7.1%
COc1nc(-c2ccc(C)cc2)ccc1-c1noc(-c2ccccc2Br)n1 | -13.8%
COc1ccc(-c2noc(CSc3nc(N)cc(=O)[nH]3)n2)cc1OC | 20.0%
CCn1cc(C(=O)NCCc2ccc(OC)c(OC)c2)c(=O)c2cc(S(=O)(=O)N3CCC(C)CC3)ccc21 | -5.8%
O=C(Nc1c2c(nn1-c1ccc(Cl)cc1)CS(=O)(=O)C2)c1ccccc1F | -6.0%
COc1ccccc1CNC(=O)C1CCCN(S(=O)(=O)c2ccc3c(c2)CCCN3C(C)=O)C1 (stereo unspecified) | 7.7%
COc1cccc2c1ncc1c(-c3ccc(C)cc3)nn(-c3cccc([N+](=O)[O-])c3)c12 | -2.2%

(next part)
SMILES | miR-21 FLuc
CCc1ccc(NC(=O)CN2C(C(=O)OC)=C(c3ccccc3)c3ccccc3S2(=O)=O)cc1 | 6.9%
Cc1ccccc1OCc1ccc(-c2nc(C#N)c(N3CCN(C)CC3)o2)o1 | 20.2%
COc1cccc(-n2cc(C(=O)NCc3ccc(C)cc3)c3ccccc3c2=O)c1 | -2.3%
CCc1ccc(S(=O)(=O)n2ccnc2)cc1 | 4.8%
Fc1ccccc1N1CCN(c2ncnc3c2nc2n3CCCC2)CC1 | 0.1%
CCc1cccc(NC(=O)CN(C)S(=O)(=O)c2ccc3c(c2)n(C)c(=O)c(=O)n3C)c1 | -5.0%
COc1cc2c(cc1OC)C(COc1ccc3c(C)cc(=O)oc3c1)N(C(=O)c1cccc(C)c1)CC2 (stereo unspecified) | 2.7%
CCOc1ccc(CN2C(=O)c3ccccc3Sc3ccc(C(=O)NCc4ccco4)cc32)cc1 | -0.1%
COc1ccc(-c2cn3nc(N4CCCC(C(=O)NCc5ccccc5OC)C4)sc3n2)cc1 (stereo unspecified) | -43.9%
COc1cccc(CNC(=O)c2ccc3c(c2)nc2n3CCOC2)c1 | -18.0%
Cc1nnc(SCc2cc(=O)n3c(C)cccc3n2)s1 | -38.7%
Cc1ccc2nc(-c3ccc(C)c(NC(=O)CSc4ccc(Cl)cc4)c3)oc2c1 | -67.1%
Clc1cccc(CSc2ccc(-c3cccs3)nn2)c1 | -8.3%
O=C(Nc1c(C(=O)c2ccc(Cl)cc2)oc2ccccc12)c1cc(=O)c2ccccc2o1 | -0.3%
COc1ccc(NC(=O)c2c(-c3ccccc3)c(-c3ccccc3)nn(C)c2=O)cc1OC | 18.0%
Cc1ccc2c(c1)cc1c(=O)n(CC(=O)NC(C)CCc3ccccc3)nc(C)n12 (stereo unspecified) | -0.8%
O=C(NCc1ccccc1)c1ccc2oc(=O)n(Cc3ccccc3)c2c1 | 0.4%
Cc1cccc(S(=O)(=O)c2cn(Cc3ccccc3)c3cc(N4CCC(C)CC4)c(F)cc3c2=O)c1 | 0.1%
Cc1cc(C)cc(OCCOCCn2c(-c3ccc(Cl)cc3)nc3ccccc3c2=O)c1 | -13.9%
O=C(Nc1ccccc1)C1CCN(S(=O)(=O)c2ccc3[nH]c4c(c3c2)CCCCC4)CC1 | 29.3%
CCOC(=O)Cn1c(=O)c2c(nc(N3CCOCC3)n2Cc2ccccc2)n(C)c1=O | 10.2%
CCOc1ccc(NC(=O)CSc2nnc3scc(-c4ccc(Cl)cc4)n23)cc1 | 0.5%
CC(C)Oc1ccc(CNS(=O)(=O)c2ccc(-c3cc(C(F)(F)F)on3)s2)cc1 | -0.4%
Cc1ccc2oc(=O)c(-c3nc4ccc(C)cc4[nH]3)cc2c1 | -21.7%
Clc1cccc(N2CCN(c3nc4ccccc4c4nc(-c5ccccc5)nn34)CC2)c1 | 3.1%

Rewritten with tabs: 3 of the compounds above
compound	miR-21 FLuc
Fc1ccccc1N1CCN(c2ncnc3c2nc2n3CCCC2)CC1	0.1%
CCc1cccc(NC(=O)CN(C)S(=O)(=O)c2ccc3c(c2)n(C)c(=O)c(=O)n3C)c1	-5.0%
COc1cc2c(cc1OC)C(COc1ccc3c(C)cc(=O)oc3c1)N(C(=O)c1cccc(C)c1)CC2 (stereo unspecified)	2.7%

(more compounds)
SMILES | miR-21 FLuc
CCc1ccc(C(c2ccccc2)c2c[nH]c3ccc(C)cc23)s1 (stereo unspecified) | -2.1%
CCOC(=O)c1cc(-c2ccccc2)n(CC(=O)NC(C)c2ccccc2)c1C (stereo unspecified) | -1.3%
COc1ccc(NC(=O)CCn2cccn2)cc1OC | -2.3%
COc1ccc(Cl)cc1NC(=O)CCCn1c(=O)c2cccn2c2cccnc21 | -1.7%
CCc1ccc(NS(=O)(=O)c2ccc(C(=O)N(C)C)s2)cc1 | 6.5%
Oc1c(C(c2ccc(Br)cc2)N2CCOCC2)sc2nc(-c3ccco3)nn12 (stereo unspecified) | -6.9%
CCc1ccc(S(=O)(=O)c2cn(C)c3cc(N4CCC(C)CC4)c(F)cc3c2=O)cc1 | -3.2%
CN(C(=O)Cn1ncc2c1-c1ccccc1OC2)c1ccc(Br)cc1 | 1.7%
CC1=C(C(=O)OC2CCCCCC2)C(c2c(Cl)cccc2Cl)CC(=O)N1 (stereo unspecified) | 24.2%
CCC(Cc1ccccc1)NC(=O)Cn1nc(C)n2c(cc3occc32)c1=O (stereo unspecified) | -1.9%
CC1(C)CC(=O)c2cc(-c3nc(-c4ccccc4)cs3)c(=O)[nH]c2C1 | -6.1%
COc1ccc(OC)c(NC(=O)CN2C(=O)COc3ccc(S(=O)(=O)NC4CCCC4)cc32)c1 | 2.7%
CCOc1cc(S(=O)(=O)NCCc2c(C)[nH]c3ccc(C)cc23)ccc1Br | ?
CC(=O)c1c(C)oc2c(Br)cc(NS(=O)(=O)c3ccc(Br)cc3)cc12 | 0.2%
CC1CCc2c(sc3nnn(CC(=O)Nc4ccc(Cl)cc4)c(=O)c23)C1 (stereo unspecified) | -0.4%
COc1ccc2nc(N(Cc3cccnc3)C(=O)Cc3ccccc3)sc2c1 | -1.8%
CCc1ccccc1NC(=O)c1ccc(CN2C(=O)CCn3nc(C)cc32)cc1 | 0.7%
Cc1cccc(NC(=O)C2CCN(S(=O)(=O)c3c(C)noc3/C=C/c3ccco3)CC2)c1C | -1.4%
CCn1nc(C)cc1C(=O)N1CCCC(N2CCN(c3cccc(Cl)c3)CC2)C1 (stereo unspecified) | 13.8%
COc1ccc(CCNC(=O)CCn2c(=O)c3cccn3c3ccc(F)cc32)cc1OC | 0.2%
O=C(NCCc1ccccc1)c1ccc2c(c1)N(Cc1ccc(F)cc1)C(=O)c1ccccc1S2(=O)=O | 4.7%
O=C(c1cccs1)N1CCCc2cc(NS(=O)(=O)c3ccc(Br)cc3)ccc21 | 12.6%
COc1ccccc1C(=O)N1CCC(c2noc(-c3ccc(S(=O)(=O)N4CCCC4)cc3)n2)CC1 | ?
COc1ccc(-c2cc(-c3ccc(F)cc3)nc3c2COc2ccc(F)cc2-3)cc1 | -2.7%
COc1ccc(S(=O)(=O)NCc2cccn2Cc2cccc(C)c2)cc1 | -3.6%

Going on with the list:
SMILES | miR-21 FLuc
CN1CCN(c2ncc3c(n2)CCN(Cc2ccc(Br)s2)C3)CC1 | 1.4%
CCC12CN3CC(C)(CN(C1)C3c1ccccc1C)C2=O (stereo unspecified) | 4.8%
COc1cc(C(=O)NCc2nc3cccnc3n2Cc2ccc(C)cc2)cc(OC)c1OC | -5.1%
CCOc1ccc(NC(=O)CSc2nc3c(oc4ccccc43)c(=O)n2-c2ccccc2C)cc1 | -0.5%
COc1cc(C(=O)NCc2nc(-c3ccc(Cl)cc3)no2)cc(OC)c1OC | -1.0%
Cc1ccc(C)n1-c1nnc(N2CCC(C(=O)NCc3ccccc3Cl)CC2)s1 | 1.1%
CCOc1cc(C#N)c(NC(=O)c2ccc(OC)c(S(=O)(=O)N3CCCCC3)c2)cc1OCC | 5.3%
Cc1cccc(S(=O)(=O)Nc2cccc(-c3ccc(N4CCCCC4)nn3)c2)c1 | -36.0%
COc1ccc(-c2c(C)c3ccc(O)c(CN4CCCC4)c3oc2=O)cc1 | -23.1%
COC(=O)c1ccc(Cl)c(NC(=O)C2CCN(S(=O)(=O)Cc3ccccc3)CC2)c1 | -19.1%
Cc1ccc(NC(=O)CSc2nc(=O)n(Cc3cccnc3)c3c2CCC3)cc1F | 0.1%
Cc1ccc(C2CCN(C(=O)c3cnn(-c4ccccc4Cl)c3C3CCN(C(=O)OC(C)(C)C)CC3)C2)cc1 (stereo unspecified) | ?
CCc1ccc(N(C)S(=O)(=O)c2ccc3[nH]cc(C(=O)NCC4CCCO4)c(=O)c3c2)cc1 (stereo unspecified) | 19.4%
CCOc1ccccc1CNC(=O)c1cnc2sc(N3CCCC3)nn2c1=O | 1.7%
CCC1CCc2nc3sc(C(=O)Nc4ccc(C)cc4)c(N)c3cc2C1 (stereo unspecified) | -2.6%
COc1ccccc1N1CCN(C(=O)CN2C(=O)COc3ccc(S(=O)(=O)N4CCCC4)cc32)CC1 | -0.9%
Cc1ccc(-c2nc(CCNC(=O)C(=O)Nc3ccc(C)c(Cl)c3)cs2)cc1 | -0.7%
CCN(CC)S(=O)(=O)c1ccc2c(c1)N(CC(=O)Nc1ccc(F)cc1)C(=O)CO2 | 3.1%
CCN(CC)c1nn2c(=O)c(C(=O)NCCc3cccc(C)c3)cnc2s1 | -0.2%
Cc1ccc2nc(N(Cc3cccnc3)C(=O)c3ccc4c(c3)OCCO4)sc2c1 | -35.0%
CCC1CN(C(=O)N2CCC(C(=O)NCCCc3ccccc3)CC2)c2cc(C)ccc2O1 (stereo unspecified) | 4.4%
COc1ccccc1OCC(=O)N/N=C/c1c(O)ccc2ccccc12 | 17.5%
CN1C(=O)c2ccccc2Sc2ccc(NC(=O)COc3ccccc3)cc21 | ?
Cc1cccc(OCC(=O)Nc2cccc(OCc3cc(=O)n4cccc(C)c4n3)c2)c1 | -1.9%
Cc1cc(C)cc(N2C(=O)CS(=O)(=O)C23C(=O)N(Cc2ccccc2)c2ccccc23)c1 (stereo unspecified) | -6.7%

Next structures follow.
SMILES | miR-21 FLuc
CCCNS(=O)(=O)c1cc(-c2nn3c(C)nnc3c3ccccc23)ccc1C | -5.8%
Cc1ccc(-n2nc(C(=O)N3CCN(c4ccccc4F)CC3)c3c4ccccc4n(C)c3c2=O)cc1 | 2.5%
Cc1ccc2cccc(NC(=O)c3cccc4ccccc34)c2n1 | 21.3%
COc1ccc(OCC(=O)N2CCN(C(=O)c3cccc(OC)c3)CC2)cc1 | -0.5%
Cc1ccc(NC(=O)C(CC(C)C)NS(=O)(=O)c2ccc3c(c2)oc(=O)n3C)c(C)c1 (stereo unspecified) | 1.9%
Cc1ccc(S(=O)(=O)C(CNC(=O)C(=O)NCc2ccc(Cl)cc2)c2ccco2)cc1 (stereo unspecified) | -1.2%
O=C(Nc1ccc(C(=O)N2CCN(c3ccccc3)CC2)cc1)c1nsc2ccccc12 | -58.8%
COc1ccc(-c2nnc3c4ccccc4c(-c4ccccc4)nn23)cc1 | -2.7%
Cc1nc2ncnn2c(C)c1CCC(=O)N1CCN(c2ccc(F)cc2)CC1 | 3.9%
COc1ccc(N2CCN(S(=O)(=O)CCNC(=O)c3ccc(C(F)(F)F)cc3)CC2)cc1 | -1.7%

Arranged by molecular weight (smallest number first): part of the list above.
SMILES | miR-21 FLuc
CCC1CN(C(=O)N2CCC(C(=O)NCCCc3ccccc3)CC2)c2cc(C)ccc2O1 (stereo unspecified) | 4.4%
O=C(c1cccs1)N1CCCc2cc(NS(=O)(=O)c3ccc(Br)cc3)ccc21 | 12.6%
COc1cc2c(cc1OC)C(COc1ccc3c(C)cc(=O)oc3c1)N(C(=O)c1cccc(C)c1)CC2 (stereo unspecified) | 2.7%

Reprinted from above for reference:
SMILES | miR-21 FLuc
Cc1ccc2cccc(NC(=O)c3cccc4ccccc34)c2n1 | 21.3%
COc1ccc(OCC(=O)N2CCN(C(=O)c3cccc(OC)c3)CC2)cc1 | -0.5%
Cc1ccc(NC(=O)C(CC(C)C)NS(=O)(=O)c2ccc3c(c2)oc(=O)n3C)c(C)c1 (stereo unspecified) | 1.9%
Cc1ccc(S(=O)(=O)C(CNC(=O)C(=O)NCc2ccc(Cl)cc2)c2ccco2)cc1 (stereo unspecified) | -1.2%
O=C(Nc1ccc(C(=O)N2CCN(c3ccccc3)CC2)cc1)c1nsc2ccccc12 | -58.8%
